# Screening data from PubChem.
# Marburg entry inh – Marburg virus entry inhibition | Marburg virus pseudotyped entry inhibition, cell reporter; control for the full effect not named in the record; about a third of the inactives were read at about 46 µM | Potency, µM (doses to about 37.8 µM), for inactives: at the top dose activity change, negative = inhibition, usual class: inhibitors | actives 1.8% (n = 300,000) | AID 540276; active = well fitted inhibition curve with a large enough effect; inconclusive = small, poorly fitted or top-dose-only effect, or effect the other way; inactive = flat fitted curve, though single readings scatter; tested in HEK293 cells; about a fifth of its hits are not listed in these tables; note: % is set by controls: 0 for no effect and ±100 for the full control effect; luciferase read-out
# Cruzain Triton – cruzain (T. cruzi) inhibition with detergent; P25779; purified cruzain, Z-FR-AMC fluorescence, 0.01% Triton; actives 0.43% (n = 200,000); AID 1478; Potency, µM, without a hit: max response, negative = inhibition, hits mostly inhibitors;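 note: plate controls were neutral wells for no effect and buffer without enzyme for full effect; nearly all actives have a fitted effect of over 40% in size; top concentration of the series not given in the record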
# Target sequence (P25779 123-467 limits assumed): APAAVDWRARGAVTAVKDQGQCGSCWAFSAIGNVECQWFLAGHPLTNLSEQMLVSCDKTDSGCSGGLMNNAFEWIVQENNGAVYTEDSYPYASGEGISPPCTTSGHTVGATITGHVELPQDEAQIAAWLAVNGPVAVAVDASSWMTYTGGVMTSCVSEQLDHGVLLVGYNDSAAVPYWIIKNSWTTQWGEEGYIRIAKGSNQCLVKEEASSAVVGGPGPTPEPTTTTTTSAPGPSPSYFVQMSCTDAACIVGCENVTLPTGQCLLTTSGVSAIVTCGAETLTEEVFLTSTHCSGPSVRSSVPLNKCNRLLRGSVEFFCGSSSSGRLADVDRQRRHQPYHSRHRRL
#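 Steps: dispense cruzain (1.5 nM final) in acetate buffer pH 5.5 with DTT and 0.01% Triton X-100; pin-transfer compounds; incubate 15 min RT; add Z-FR-AMC (2 uM final); read fluorescence every 30 s, using the 60 s intensity change.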
# SARS PLpro yeast – SARS-CoV PLP inhibition in yeast; S. cerevisiae expressing SARS-CoV PLpro, growth rescue; control for the full effect not named in the record; Potency, µM (doses to about 32.9 µM), without a hit: top-dose activity, positive = growth rescue; actives 0.19% (n = 330,000); active means well fitted rising curve with a large enough effect; inconclusive means small, poorly fitted or top-dose-only effect; inactive means no such curve, though single readings can be large or run the other way; note: 0% is about no effect; nearly all actives have a fitted effect of over 55% in size; growth read by luminescence after 48 h
# RE007 growth inh – less growth of the S. pombe RE007 Vpr strain. S. pombe RE007 Vpr strain, BacTiter-Glo ATP luminescence, 24 h; control for the full effect not named in the record. Potency, µM (titrated, usually from 92.2 µM), for inactives: top-dose activity change, negative = less growth. actives 0.21% (n = 360,000). AID 651644; active = well fitted falling curve with a large enough effect; inconclusive = small, poorly fitted or top-dose-only effect; inactive = no such curve, though single readings can be large or run the other way;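 note: % is set by controls: 0 for no effect and ±100 for the full control effect; nearly all actives have a fitted effect of over 50% in size; the assay follows cell death caused by Vpr and the record does not say whether a fall means rescue or toxicity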
#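 Fission yeast RE007 carrying one integrated HIV-1 vpr copy, seeded at OD 0.01 in PMG+AL medium with 23 nL pinned compound. Grown 24 h at 30 degrees; viability read by BacTiter-Glo luminescence after 5 min.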
# Cruzain noTriton – blocks cruzain activity in detergent-free assay | P25779 | purified cruzain, Z-FR-AMC fluorescence, no detergent | Potency, µM, for inactives: max response, negative = inhibition, usual class: inhibitors | actives 2.3% (n = 200,000) | AID 1476;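 note: plate controls were enzyme without inhibitor for no effect and buffer without enzyme for full effect; nearly all actives have a fitted effect of over 40% in size; top concentration of the series not given in the record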
#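 Purified cruzain at 1.5 nM, pre-incubated 15 min with compound at room temperature in 100 mM sodium acetate pH 5.5, 5 mM DTT, 0.00005% Triton X-100. Reaction started with 2 uM Z-FR-AMC; AMC fluorescence increase over 60 s gives rate.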
# Lassa entry inh – blocks Lassa virus binding to or entry into cells | AID 540256 | actives 1.2% (n = 300,000) | Potency, µM (titrated, usually from 37.9 µM), for inactives: at the top dose activity change, negative = inhibition, usual class: inhibitors | Lassa virus pseudotype entry inhibition, cell reporter; control for the full effect not named in the record; active means well fitted inhibition curve with a large enough effect; inconclusive means small, poorly fitted or top-dose-only effect, or effect the other way; inactive means flat fitted curve, though single readings scatter; tested in HEK293 cells; note: % is set by controls: 0 for no effect and ±100 for the full control effect; nearly all actives have a fitted effect of over 50% in size; luciferase read-out
# 2A StopGo – lowers the luciferase signal of an FMDV 2A StopGo reporter | human cells with a luciferase reporter of 2A StopGo recoding; control for the full effect not named in the record | Potency, µM (top dose mostly 57.9 µM), inactives show at the top dose signal change, negative = less light | actives 1.2% (n = 410,000) | AID 1159524; active = well fitted falling curve with a large enough effect; inconclusive = small, poorly fitted or top-dose-only effect; inactive = no such curve, though single readings can be large or run the other way; tested in HEK293T cells; note: % is set by controls: 0 for no effect and ±100 for the full control effect; nearly all actives have a fitted effect of over 45% in size; luciferase light after 4 h
# NS1 function inh – inhibitors of influenza NS1 protein function | S. cerevisiae slowed by influenza A NS1, growth recovery by OD600 | AID 2326 | Potency, µM (top dose mostly 46.1 µM), for inactives: at the top dose activity, positive = more growth | actives 0.4% (n = 270,000); active means well fitted rising curve with a large enough effect; inconclusive means small, poorly fitted or top-dose-only effect; inactive means no such curve, though single readings can be large or run the other way; note: nearly all actives have a fitted effect of over 50% in size
#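 Compounds were scored for reversing the slow growth caused by influenza A NS1 in S. cerevisiae, measured by optical density at 600 nm. Assay medium contained 2% galactose at pH 6.0; NS1-free yeast of the same strain were the positive control.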
# An asterisk follows results filed as active; ? = inconclusive; · = no result given; [ ] = remark or other dose. Unless noted, calls come from the whole dose curve; as a rule, active = well fitted curve in the direction sought with a large enough effect; inconclusive = small, poorly fitted or top-dose-only effect, or another doubt; inactive = no such curve, though single readings can be large; an effect the other way counts as inactive or inconclusive. Potency is the fitted concentration of half-maximal effect.
SMILES,Marburg entry inh,Cruzain Triton,SARS PLpro yeast,RE007 growth inh,Cruzain noTriton,Lassa entry inh,2A StopGo,NS1 function inh
Cc1cc(OC(=O)c2ccco2)c2c3c(c(=O)oc2c1)CCCC3,11.2µM*,-3.9%,-11.0%,11.3%,18.9%,?,?,-45.1%
CCOC(=O)C1(CC2CC2)CCN(Cc2cn[nH]c2-c2ccccc2)CC1,·,·,0.5%,0.4%,·,·,-21.3%,3.0%
Cc1nc(N2CCN(Cc3nc4ccccc4[nH]3)CC2)c2oc3ccccc3c2n1,-5.1%,-5.9%,-4.0%,1.2%,?,5.0%,-28.9%,-94.2%
CCc1nc(SCC(=O)Nc2ccc(N(C)C)cc2)n[nH]1,5.7%,·,1.7%,10.7%,·,-12.9%,6.4%,·
Cc1ccc(S(=O)(=O)/N=C/c2c(O)ccc3ccccc23)cc1,·,·,5.9%,-14.2%,·,·,-17.1%,2.1%
COc1ccccc1CCNC(=O)c1nc(-c2cccs2)no1,?,·,-2.5%,-25.9%,·,0.5%[46.1 µM],25.1%,·
COc1ccc([N+](=O)[O-])cc1N(CC(=O)Nc1ccccc1C(=O)NC(C)C)S(C)(=O)=O,-9.3%[46.1 µM],·,-0.3%,8.7%,·,-5.0%[46.1 µM],-3.6%,2.6%
CC1(C)CC(N2CCN(CCO)CC2)=CC(=S)N1,·,·,1.6%,15.0%,·,·,-15.3%,-3.5%
CC1=C(C(=O)Nc2ccc(C)cc2)C(c2cccs2)NC(=S)N1 (configuration not stated),21.8%,-1.3%,23.9%,-20.2%,-0.1%,-3.2%,12.1%,3.3%
C(=N\Nc1nccc(-c2cccnc2)n1)/c1ccccc1,·,·,-6.8%,-14.9%,·,·,0.2%,-40.5%
COc1ccc(CCN(Cc2ccccn2)C(=S)Nc2ccc(C)cc2)cc1OC,-20.8%[46.1 µM],·,6.2%,15.2%,·,-27.1%,-19.0%,4.8%
O=C(O)CNC(=S)NCc1ccccc1,?,·,1.1%,5.5%,·,1.9%,-2.8%,14.1%
Cc1ccc(N(Cc2ccccc2)C(=O)c2ccc(F)cc2)cc1,-1.3%[46.1 µM],·,-0.5%,2.5%,·,?,7.3%,4.6%
CCn1c(CN2CCN(c3ccc(Cl)cc3)CC2)nc2ccccc21,-21.2%,-9.1%,25.9%,0.4%[3.69 µM],20.6%,-4.2%,?,-40.6%
COc1ccc2[nH]c(=O)c(CN(C(=O)c3ccco3)C3CCCCC3)cc2c1,?,-4.8%,-1.2%,-0.9%,0.2%,-5.6%,-23.6%,5.2%
CCCCCCCCn1c2c(c(=N)c3c1CCC3)CCCC2,5.01µM*,·,-5.1%,?,·,5.62µM*,?,-78.5%
C=CCc1cc(/C=C/c2nc(O)c([N+](=O)[O-])c(=O)[nH]2)cc(OC)c1O,?,·,0.3%,-6.6%,·,0.1%,-5.5%,·
NC(N)=N/N=C(\N=Nc1ccccc1)c1cccc2cccnc12,6.0%,·,·,3.8%,·,1.5%,-1.5%,·
O=C1Nc2ccccc2C1(O)Cc1ccccn1 (configuration not stated),3.0%[46.1 µM],·,-0.3%,-1.8%,·,20.3%,4.2%,1.4%
CCn1c(=O)n(-c2ccc(C)c(F)c2)c(=O)c2sc3ccccc3c21,-2.6%[46.1 µM],-0.5%,·,·,-12.2%,0.0%[46.1 µM],-9.0%,·
COc1ccc2c(c1)Cc1sc(NC(=O)c3cccc(Cl)c3)nc1-2,·,-0.3%,·,·,9.0%,20.1%[46.1 µM],?,·
CCOc1ccccc1N1CCN(C(=O)c2ccc(NS(=O)(=O)c3ccc4[nH]c(=O)[nH]c4c3)cc2)CC1,17.9%[46.1 µM],·,-5.5%,3.1%,·,17.7%,22.4%,·
CCn1cc([N+](=O)[O-])c(C(=O)N2N=C(c3cccc4ccccc34)CC2c2ccccc2O)n1 (configuration not stated),?,-5.8%,7.7%,-3.4%,25.1%,?,?,22.5%
CCCc1ccc(OCc2ccc(C(=O)OC)o2)c(OC)c1,?,-7.4%,-22.5%,-2.9%,5.1%,-3.4%,41.1%[activator],-31.7%
CCC(CC)c1nnc(NC(=O)CCCN2C(=O)c3ccccc3C2=O)s1,3.3%,0.0%,-1.4%,1.4%,1.9%,-22.6%,-6.9%,-2.2%
O=Cc1cnc(N2CCOCC2)nc1,?,-3.2%,16.9%,3.3%,-15.3%,13.1%,-9.3%,-3.5%
COC(=O)CCNC(=O)c1nn(Cc2ccccc2)c(=O)c2ccccc12,?,·,-3.0%,-4.5%,·,·,-2.1%,-4.0%
O=C(CSc1nnc2ccccn12)Nc1cccc(-c2nc3ccccc3s2)c1,?,-0.2%,-2.4%,-7.7%,?,?,26.8%,4.5%
COc1ccc(NC(=O)CSc2nc(-c3ccccc3)[nH]c2-c2ccccc2)cc1OC,?,-6.0%,·,·,13.8%,?,-26.2%,·
COc1cc(OC)c(NC(=O)Nc2ccc3c(c2)N(C)C(=O)c2ccccc2S3)cc1Cl,10µM*,-3.6%,·,·,?,-23.8%[46.1 µM],12.0%,·
COCCCNC(=O)Nc1ccc2c(c1)N(C)C(=O)CS2,-27.0%,4.3%,6.4%,-4.5%,-9.4%,10.9%,14.2%,1.9%
O=C(c1ccc(Cl)cc1)c1cc(-c2ccccn2)c(N2CCOCC2)s1,-6.0%,-4.3%,-7.1%,?,?,0.5%,?,-1.6%
O=C(Cn1cnc2ccccc2c1=O)Nc1ccc2c(c1)OCO2,?,0.5%,-9.3%,-11.6%,-8.0%,22.7%,36.3%[activator],-18.6%
CCOc1nc(-c2ccccc2)c2cc(C)ccc2n1,·,·,-13.7%,-9.9%,·,·,-26.2%,-40.1%
COc1cc(C2c3cc4c(cc3C(OC3OC5COC(c6cccs6)OC5C(O)C3O)C3COC(=O)C23)OCO4)cc(OC)c1O (configuration not stated),·,·,1.2%,2.6%,·,·,-17.8%,-5.3%
CCOc1ccc(-c2ccc(NS(=O)(=O)c3cc([N+](=O)[O-])c(C)c([N+](=O)[O-])c3)cc2)nn1,·,·,0.7%,2.1%,·,·,48.1%[activator],12.7%
COc1cc(Nc2nc3c(N)cc(C(F)(F)F)cc3nc2-c2ccccc2)cc(OC)c1OC,-7.9%,·,·,-6.4%,·,-5.7%,-12.7%,·
CC(C)NC(=O)c1ccc(Cl)cc1Cl,7.0%,·,0.0%,6.5%,·,12.8%[46.1 µM],5.3%,9.0%
Cc1nnc(NC(=O)CSc2nnc(CC(=O)Nc3ccccc3Cl)n2C)s1,20.8%[46.1 µM],·,-1.1%,-9.4%,·,·,12.8%,14.9%
FC(F)(F)c1cc(-c2cccs2)nc2cc(-c3ccccc3)nn12,23.1%,-3.6%,-7.2%,-21.6%,9.7%,0.1%,-0.6%,0.9%
Cc1ccc(C(=O)N/C(=C\c2cccs2)C(=O)NCc2cccnc2)cc1,0.7%,4.1%,-11.3%,13.5%,13.3%,8.2%,5.4%,?
CCc1ccc(-n2c(-c3ccccc3)c(C)n3c4c(=O)n(C)c(=O)n(C)c4nc23)cc1,-1.1%[46.1 µM],-0.7%,·,·,-4.7%,-1.4%[46.1 µM],-7.4%,·
CCn1c(C)nc2cc(C(=O)NN=C(C)c3ccc(C#N)cc3)ccc21,?,·,13.2%,-0.9%,·,-13.6%[46.1 µM],-12.0%,·
Cc1ccccc1OCCC(=O)OCC(=O)c1c(N)n(CC(C)C)c(=O)n(C)c1=O,?,·,·,0.1%,·,?,?,·
CC1CC(C)CN(C(=O)CSc2nnc(-c3ccc(Cl)cc3)o2)C1 (configuration not stated),·,3.6%,-8.0%,-1.8%,-0.2%,·,-0.9%,-9.3%
CCN(C(=O)c1ccnc(C(C)(C)C)c1)c1ccccc1,6.8%,2.4%,3.0%,-9.8%,1.1%,25.5%,-18.3%,-8.4%
Cc1ccc2nc(-c3ccncc3)cc(C(=O)Nc3ccc4c(c3)OCCO4)c2c1,?,·,-2.5%,9.6%,·,?,?,5.4%
NC(=O)c1ccccc1NC(=O)C1CCCO1 (configuration not stated),?,·,7.8%,-3.8%,·,24.0%[46.1 µM],-4.4%,3.8%
CCOC(=O)C(C)n1nc(C)c2sc3ccccc3c2c1=O (configuration not stated),-1.7%,5.4%,9.5%,4.5%,12.6%,6.6%,1.0%,-56.8%
COc1ccccc1Nc1ncnc2c1oc1ccccc12,15.7%,-8.5%,-0.6%,-13.7%,-12.4%,-5.6%,36.8%[activator],-40.7%
O=C(Nc1ccc(N2CCN(C(=O)c3ccco3)CC2)cc1)c1cccc(F)c1,0.9%,-2.9%,5.5%,-0.5%,-4.0%,3.6%,-11.0%,-12.3%
CCN(C(=O)CSc1nnc(-c2ccc(Cl)cc2)o1)c1ccccc1,-5.9%[46.1 µM],-8.4%,·,·,-3.4%,-7.8%[46.1 µM],?,·
COc1ccc(C(=O)C[n+]2cccc(Br)c2)cc1,?,·,0.8%,-16.3%,·,23.6%,-15.3%,-1.4%
COc1cccc(N2CCN(C(=O)c3cc4c(=O)n(Cc5cccs5)ccc4nc3C)CC2)c1,·,-7.5%,·,·,?,-16.0%[46.1 µM],?,·
Cc1cccc(NC(=O)CSc2nnc(NC(=O)CN3CCOCC3)s2)c1,-6.2%,-8.3%,4.4%,9.1%,11.8%,-8.8%,?,4.5%
Cc1cc(NCCCn2ccnc2)n2ncc(-c3ccc(Cl)cc3)c2n1,?,1.4%,-3.3%,-0.7%,9.1%,?,2.8%,-56.4%
COc1ccccc1CNC(=O)CCc1c(C)c2ccc(OC)c(C)c2oc1=O,?,-3.6%,·,·,-2.2%,-9.1%[46.1 µM],-2.1%,·
COC(=O)Nc1nnc(-c2ccncc2)s1,18.3%,-3.6%,-0.7%,-3.8%,-2.0%,?,24.6%,-35.0%
CCCCc1ccc(/C=C2\C(=O)c3ccccc3C(O)=C2C(=O)OCC)cc1,·,-3.3%,-39.7%,·,?,·,·,-46.8%
CC(C)NCc1c(O)c(Br)cc2oc3c(c12)CCCC3,?,0.5%,-5.2%,0.7%,12.6µM*,0.0%,-0.3%,-18.4%
